Screens: PubChem, National Center for Advancing Translational Sciences (NCATS)
Cruzain inh Det: inhibitors of Trypanosoma cruzi cruzain with detergent; P25779; purified cruzain, Z-FR-AMC fluorescence, 0.01% Triton; Potency, µM, without a hit: max response, negative = inhibition, most hits filed as inhibitors; 200,000 tested, 0.43% active; AID 1478;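 further: plate controls were neutral wells for no effect and buffer without enzyme for full effect; nearly all actives have a fitted effect of over 40% in size; top concentration of the series not given in the record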
Target sequence (P25779 123-467 limits assumed): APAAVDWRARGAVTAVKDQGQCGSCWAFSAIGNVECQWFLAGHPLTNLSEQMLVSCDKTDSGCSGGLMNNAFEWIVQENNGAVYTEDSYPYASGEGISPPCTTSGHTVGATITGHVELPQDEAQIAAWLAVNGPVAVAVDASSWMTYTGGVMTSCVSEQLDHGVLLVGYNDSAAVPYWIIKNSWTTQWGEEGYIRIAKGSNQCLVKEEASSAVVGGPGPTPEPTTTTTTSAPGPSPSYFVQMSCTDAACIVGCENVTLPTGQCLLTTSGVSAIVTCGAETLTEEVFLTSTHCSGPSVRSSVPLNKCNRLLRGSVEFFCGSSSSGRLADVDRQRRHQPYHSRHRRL
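Purified cruzain (1.5 nM final) was preincubated with compounds for 15 min at room temperature in 100 mM sodium acetate pH 5.5, 5 mM DTT, 0.01% Triton X-100. Reaction started with 2 uM Z-FR-AMC; AMC fluorescence change over 60 s gave activity.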
NS1 inh: blocks influenza NS1 protein function; S. cerevisiae slowed by influenza A NS1, growth recovery by OD600; Potency, µM (top dose mostly 46.1 µM), for the others: at the top dose activity, positive = more growth; 270,000 tested, 0.4% active; active means well fitted rising curve with a large enough effect; inconclusive means small, poorly fitted or top-dose-only effect; inactive means no such curve, though single readings can be large or run the other way; further: nearly all actives have a fitted effect of over 50% in size
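In this qHTS, NS1 from influenza A is expressed in budding yeast, where it slows growth. Cells are switched from glucose to 2% galactose medium (pH 6.0, -URA), treated with compound, and growth recovery is read at OD600.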
Lassa entry inh: inhibitors of Lassa virus binding or cell entry; Lassa virus pseudotype entry inhibition, cell reporter; control for the full effect not named in the record; Potency, µM (titrated, usually from 37.9 µM), for the others: at the top dose activity change, negative = inhibition, actives largely listed as inhibitors; 300,000 tested, 1.2% active; AID 540256; active means well fitted inhibition curve with a large enough effect; inconclusive means small, poorly fitted or top-dose-only effect, or effect the other way; inactive means flat fitted curve, though single readings scatter; tested in HEK293 cells; further: on the % scale 0 is the no-effect control and ±100 the full control effect; nearly all actives have a fitted effect of over 50% in size; luciferase read-out
Cruzain noTriton: inhibitors of Trypanosoma cruzi cruzain without detergent. P25779. purified cruzain, Z-FR-AMC fluorescence, no detergent. Potency, µM, without a hit: max response, negative = inhibition, actives largely listed as inhibitors. 200,000 tested, 2.3% active;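 further: plate controls were enzyme without inhibitor for no effect and buffer without enzyme for full effect; nearly all actives have a fitted effect of over 40% in size; top concentration of the series not given in the record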
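Purified cruzain at 1.5 nM, pre-incubated 15 min with compound at room temperature in 100 mM sodium acetate pH 5.5, 5 mM DTT, 0.00005% Triton X-100. Reaction started with 2 uM Z-FR-AMC; AMC fluorescence increase over 60 s gives rate.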
RE007 growth inh: less growth of the S. pombe RE007 Vpr strain. 360,000 tested, 0.21% active. Potency, µM (top dose mostly 92.2 µM), inactives show at the top dose activity change, negative = less growth. S. pombe RE007 Vpr strain, BacTiter-Glo ATP luminescence, 24 h; control for the full effect not named in the record; active = well fitted falling curve with a large enough effect; inconclusive = small, poorly fitted or top-dose-only effect; inactive = no such curve, though single readings can be large or run the other way;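 further: on the % scale 0 is the no-effect control and ±100 the full control effect; nearly all actives have a fitted effect of over 50% in size; the assay follows cell death caused by Vpr and the record does not say whether a fall means rescue or toxicity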
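Fission yeast strain RE007, carrying one chromosomally integrated HIV-1 vpr copy, was seeded at OD 0.01 in PMG+AL medium with 23 nL pinned compound. After 24 h at 30 °C and 99% humidity, viability was read by BacTiter-Glo luminescence.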
Marburg entry inh: Marburg virus entry inhibition. Marburg virus pseudotyped entry inhibition, cell reporter; control for the full effect not named in the record; about a third of the inactives were read at about 46 µM. Potency, µM (titrated, usually from 37.8 µM), without a hit: at the top dose activity change, negative = inhibition, usual class: inhibitors. 300,000 tested, 1.8% active. AID 540276; active = well fitted inhibition curve with a large enough effect; inconclusive = small, poorly fitted or top-dose-only effect, or effect the other way; inactive = flat fitted curve, though single readings scatter; tested in HEK293 cells; about a fifth of its hits are not listed in these tables; further: on the % scale 0 is the no-effect control and ±100 the full control effect; luciferase read-out
SARS PLP yeast: SARS-CoV PLP inhibition in yeast; AID 485353; 330,000 tested, 0.19% active; Potency, µM (titrated, usually from 32.9 µM), inactives show at the top dose activity, positive = growth rescue; S. cerevisiae expressing SARS-CoV PLpro, growth rescue; control for the full effect not named in the record; active means well fitted rising curve with a large enough effect; inconclusive means small, poorly fitted or top-dose-only effect; inactive means no such curve, though single readings can be large or run the other way; further: 0% is about no effect; nearly all actives have a fitted effect of over 55% in size; growth read by luminescence after 48 h
2A StopGo: FMDV 2A StopGo reporter, luciferase signal; human cells with a luciferase reporter of 2A StopGo recoding; control for the full effect not named in the record; Potency, µM (titrated, usually from 57.9 µM), inactives show top-dose signal change, negative = less light; 410,000 tested, 1.2% active; active = well fitted falling curve with a large enough effect; inconclusive = small, poorly fitted or top-dose-only effect; inactive = no such curve, though single readings can be large or run the other way; tested in HEK293T cells; further: on the % scale 0 is the no-effect control and ±100 the full control effect; nearly all actives have a fitted effect of over 45% in size; luciferase light after 4 h
Numbers without * were called inactive; ? = inconclusive; . = no result given; [ ] = another dose, or the depositor's remark. Unless noted, the call rests on the fitted dose curve; in most records, active means well fitted curve in the direction sought with a large enough effect; inconclusive means small, poorly fitted or top-dose-only effect, or another doubt; inactive means no such curve, though single readings can be large; an effect the other way counts as inactive or inconclusive. Potency means the concentration at half of the fitted maximal effect.

SMILES	Cruzain inh Det	NS1 inh	Lassa entry inh	Cruzain noTriton	RE007 growth inh	Marburg entry inh	SARS PLP yeast	2A StopGo
COc1ccc(-c2nnc(SCC(=O)NNC(=O)Cc3ccccc3)n2C)cc1OC	0.0%	-5%	-1%	1%	14%	-4%	7%	1%
COc1ccc(C(C)(C)C)cc1NC(=O)COC(=O)CN1C(=O)NC2(CCCCC2C)C1=O (configuration not stated)	.	.	15%	.	4%	4%	1%	-16%
CC(Oc1ccccc1)C(=O)N1CCC2(CC1)CC(=O)c1ccccc1O2 (configuration not stated)	.	.	12%	.	-8%	-7%	0%	?
CC(C)C(=O)Nc1nc2c(s1)CC(C(C)(C)C)CC2 (configuration not stated)	-2.0%	.	?	0%	.	26%[46.1 µM]	.	40%[activator]
CCOC(=O)C(C)Sc1nnc(Cc2cc(=O)[nH]c(=O)[nH]2)n1-c1ccc(OCC)cc1 (configuration not stated)	0.2%	5%	.	-5%	12%	2%	-4%	-26%
Cc1ccc(CSc2ncn(-c3ccccc3)n2)cc1	-6.1%	-117%	?	-7%	3%	-9%	-3%	44%[activator]
O=C1C2C3C=CC(O3)C2C(=O)N1N=Cc1cccc2ccccc12 (configuration not stated)	.	.	23%[46.1 µM]	.	-2%	?	.	35%[activator]
COCCNC(=O)CCn1c(=O)c2cc(OC)c(OC)cc2n(CC(=O)Nc2ccccc2OC)c1=O	0.9%	.	11%[46.1 µM]	-8%	.	9%[46.1 µM]	.	-9%
COc1ccc(O)c(C(=O)c2cnn(C(=O)c3cccc(S(=O)(=O)N(C)C)c3)c2)c1	.	.	?	.	-12%	10%	-1%	0%
O=C(CSc1nnc(CNC(=O)c2ccccc2)o1)c1ccccc1	.	7%	-26%	.	17%	5%	-3%	-20%
Cc1c(C(=O)N2CCOCC2)oc2c1-c1nn(CC(=O)NCc3ccccc3)cc1CC2	-2.6%	.	-13%[46.1 µM]	-7%	.	.	.	-14%
CCc1ccc(NC(=O)CSc2nc3ncc(Br)cc3[nH]2)cc1	.	-1%	.	.	6%	.	-11%	-30%
CCOC(=O)C1=C(C)N=c2s/c(=C\c3ccc(C(=O)O)cc3)c(=O)n2C1c1ccc(OC)cc1OC (configuration not stated)	.	.	?	.	3%	?	.	-3%
O=[N+]([O-])c1ccc2c(c1)nc1n2CCN(C2CCCCC2)C1	.	3%	10%	.	3%	4%[46.1 µM]	0%	17%
CCOCCCNS(=O)(=O)c1ccc(Br)cc1	-0.1%	5%	8%	3%	1%	21%	3%	13%
CCc1cccc2c(=O)c(C(=O)N3CCOCC3)c[nH]c12	2.7%	-6%	10%	1%	-6%	11%	-1%	0%
CCCn1c(=S)[nH]c2cc(OC)c(OC)cc2c1=O	-1.2%	-11%	7%	-3%	9%	?	.	0%
O=C(CNS(=O)(=O)c1ccccc1)Nc1ccc(F)cc1F	.	2%	.	.	-16%	.	0%	-9%
O=c1c(N2CCOCC2)coc2ccccc12	.	-1%	.	.	-14%	.	-2%	25%
CC(C)c1ccc(NC(=O)N2CCOCC2)cc1	.	6%	.	.	-2%	.	2%	40%[activator]
CCOC(=O)Cc1nnc(NC(=O)C2CCCCC2)s1	.	4%	0%	.	-4%	-1%	0%	5%
Cc1ccc(-c2nnn(CC(=O)N(CC3CCCO3)C(C(=O)NC3CCCC3)c3ccc(F)cc3)n2)o1 (configuration not stated)	11%	2%	-4%	11%	1%	?	0%	-7%
O=C(NC1CCCCCC1)c1ccc(Br)o1	.	-16%	12%[46.1 µM]	.	-5%	?	0%	31%[activator]
O=C(c1cc(COc2ccc(F)cc2F)on1)N1CCOCC1	.	2%	.	.	-8%	.	-4%	32%[activator]
CCCC1(CCC)NC(=O)NC1=O	5.1%	4%	22%	-7%	-4%	0%	3%	-10%

The list goes on:
SMILES	Cruzain inh Det	NS1 inh	Lassa entry inh	Cruzain noTriton	RE007 growth inh	Marburg entry inh	SARS PLP yeast	2A StopGo
CC(=O)NC1CCCc2c1cnn2-c1ccc(C(C)(C)C)cc1 (configuration not stated)	.	-2%	-23%	.	5%	7%	-6%	-20%
Cc1cc(NC(=O)C2CCCCC2)ccc1NC(=O)c1ccccc1Cl	0.1%	-6%	-11%	?	30%	4%	-18%	26%
O=C(CSc1ccccc1)NCC1(N2CCCCC2)CCCCC1	.	.	2%	.	5%	?	2%	-7%
Cc1ccc2nc(-c3ccccc3)cc(C(=O)N3CC(C)OC(C)C3)c2c1 (configuration not stated)	.	.	?	.	?	-23%	-3%	19%
Cc1ccccc1-n1c(Cc2cccs2)n[nH]c1=S	-1.3%	-6%	0%	3%	13%	-6%	2%	.
N/C(=N\OC(=O)c1ccc(Cl)cc1[N+](=O)[O-])c1cccnc1	.	-6%	13%[46.1 µM]	.	-29%	?	-3%	52%[activator]
O=C(OCc1nc2ccccc2[nH]1)C12CC3CC(CC(C3)C1)C2	-1.9%	-83%	-28%	2%	-17%	?	-12%	-17%
COC(=O)C1=C(NC(=O)COc2ccc(Cl)cc2Cl)CCS1	6.9%	0%	5%	-10%	-5%	3%	23%	3%
CS(=O)(=O)N(CC(=O)N1CCC(C(N)=O)CC1)c1ccc(Oc2ccccc2)cc1	1.0%	-2%	?	12%	3%	?	4%	?
Cc1cc(C)n2nc(C(=O)Nc3c(C)nn(Cc4ccc(F)cc4)c3C)cc2n1	.	1%	.	.	24%	.	-1%	-10%
COC(=O)c1ccc(-c2ccc(/C=N/NC(=O)CC3(C)OCCCO3)o2)cc1	.	-31%	12%[46.1 µM]	.	2%	?	-3%	0%
COc1ccc2c(c1)c1c(c(=O)n(-c3cccc(C)c3)c(=O)n1CC(=O)Nc1c(C)cc(C)cc1C)n2C	3.4%	.	?	7%	.	2%[46.1 µM]	.	-7%
Cc1sc2ncn(C(C)C(=O)OC3CCCCC3)c(=O)c2c1C (configuration not stated)	-1.7%	-79%	21%	-10%	3%	-7%	-13%	?
O=C1NC(c2ccccc2Br)=N/C1=C\c1ccco1	.	-5%	.	.	?	.	-3%	87%[activator]
CC(Cc1ccccc1)N/C=C1/CC(=O)NC1=O (configuration not stated)	0.7%	6%	17%	6%	3%	-5%	10%	10%
CCCCOc1ccc(C(=O)Oc2ccc(C)nc2)cc1	-3.9%	-57%	16%	6%	-11%	21%	-8%	29%
CCCc1ccc(Oc2cc(N3CCOCC3)nc(-c3ccccc3)n2)cc1	.	.	-11%	.	-13%	-6%	.	1%
Cc1c(Cl)cccc1NC(=S)NCc1ccccc1Cl	-11%	-10%	?	1%	-7%	?	-19%	20%
O=C(Nc1ccccc1C(F)(F)F)c1ccc(CN2CCC(Cc3ccccc3)CC2)cc1	5.5%	-19%	?	5%	0%	?	-1%	?
Cc1ccccc1CN1C(=O)C2(c3ccccc31)N(c1ccccc1)C(=O)CS2(=O)=O (configuration not stated)	1.8%	.	7%[46.1 µM]	-29%	.	.	.	-5%
COc1ccc(-n2nc([N+](=O)[O-])c(=NCc3ccco3)n2O)cc1	.	.	-18%[46.1 µM]	.	15%	?	7%	11%
O=C(NCc1ccco1)C1CCCCC1	.	-2%	6%	.	0%	-6%	0%	-18%
O=C(CCNc1ccccc1)c1cccc([N+](=O)[O-])c1	-9.7%	-63%	0%	-2%	11µM*	?	-45%	-4%
C/C(=N\N)c1c(-c2ccccc2)c2cc(C)ccc2[nH]c1=O	.	8%	.	.	9%	.	0%	-12%
CC(=O)c1c(-c2ccccc2)c2cc([N+](=O)[O-])ccc2[nH]c1=O	.	2%	.	.	5%	.	0%	-7%

(continued)
SMILES	Cruzain inh Det	NS1 inh	Lassa entry inh	Cruzain noTriton	RE007 growth inh	Marburg entry inh	SARS PLP yeast	2A StopGo
CCn1c(P(C)(=O)O)nc2ccccc21	-0.2%	1%	-1%	-5%	6%	21%	0%	-8%
CC1CCN(c2nc3c(N)ncnc3n2[C@@H]2O[C@H](CO)[C@@H](O)[C@H]2O)CC1	.	6%	.	.	8%	.	7%	-10%
COc1ccc(/C=N/Nc2nc(C)cc(=O)[nH]2)cc1OC	.	15%	8%	.	9%	11%	-9%	-8%
O=C(CSc1nc2ccccc2[nH]1)Nc1nc(-c2cccc(Br)c2)cs1	-5.6%	9%	13%	?	-4%	11%	.	-18%
O=[N+]([O-])c1cccc(/C=N/Nc2nc(C(Cl)(Cl)Cl)nc3ccccc23)c1	-6.2%	4%	5%	-15%	8%	3%	10%	?
CCN(c1ccccc1)S(=O)(=O)c1cccc(C(=O)NCCOc2ccccc2OC)c1	.	.	-17%	.	-26%	?	0%	0%
CC1CCc2[nH]c3ccc(C(=O)N(C)CC(=O)Nc4ccccc4Cl)cc3c2C1 (configuration not stated)	.	.	-27%	.	0%	-26%	-6%	-1%
O=C1NC(c2cccs2)Nc2ccccc21 (configuration not stated)	-1.7%	-45%	15%	-2%	-10%	?	1%	24%
CCCn1c(=N)n(CC(O)COc2ccccc2OC)c2ccccc21 (configuration not stated)	-3.0%	.	-20%[46.1 µM]	-7%	.	?	.	-14%
Cc1ccc(C(=O)CCC2CCCC2=O)cc1 (configuration not stated)	2.9%	-2%	?	-4%	-11%	-19%	-5%	39%[activator]
COc1ccc(C(=O)Nc2cccc(S(C)(=O)=O)c2)cc1	.	6%	.	.	9%	.	13%	6%
Cc1ccccc1OCc1nc(-c2cccnc2)no1	.	5%	12%[46.1 µM]	.	4%	6%[46.1 µM]	0%	7%
COc1cccc(NC(=O)C2CCN(c3ncccn3)CC2)c1	-2.9%	-48%	7%	4%	3%	23%	-8%	29%
Cc1cc(C)cc(OCCNS(=O)(=O)c2cccs2)c1	.	.	?	.	5%	?	-8%	-2%
CC(C)(C)OC(=O)N1CCC(C(=O)NCC2CCCO2)CC1 (configuration not stated)	.	2%	16%	.	50%	2%	1%	-18%
CCOC(=O)c1ccc(Oc2nc(NC(C)(C)C)nc(N(C)C)n2)cc1	-7.7%	-35%	?	-2%	-1%	?	-33%	?
